# KCNQ2 block: KCNQ2 channel blockers in CHO-K1 cells – cell-based, FluxOR thallium flux, B-score, primary screen (AID 2156); O88943; 20 min; active compounds read low; only compounds with negative scores are shown here; some inactives read as strong as hits; B-score at 10 µM; 1.1% of 310,000 active;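 active means fluorescence ratio B-score at most minus 3 library SDs, with starting brightness B-score within 2 library SDs, cut at about -5.5 in these data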
# Target sequence (O88943 whole entry, looked up): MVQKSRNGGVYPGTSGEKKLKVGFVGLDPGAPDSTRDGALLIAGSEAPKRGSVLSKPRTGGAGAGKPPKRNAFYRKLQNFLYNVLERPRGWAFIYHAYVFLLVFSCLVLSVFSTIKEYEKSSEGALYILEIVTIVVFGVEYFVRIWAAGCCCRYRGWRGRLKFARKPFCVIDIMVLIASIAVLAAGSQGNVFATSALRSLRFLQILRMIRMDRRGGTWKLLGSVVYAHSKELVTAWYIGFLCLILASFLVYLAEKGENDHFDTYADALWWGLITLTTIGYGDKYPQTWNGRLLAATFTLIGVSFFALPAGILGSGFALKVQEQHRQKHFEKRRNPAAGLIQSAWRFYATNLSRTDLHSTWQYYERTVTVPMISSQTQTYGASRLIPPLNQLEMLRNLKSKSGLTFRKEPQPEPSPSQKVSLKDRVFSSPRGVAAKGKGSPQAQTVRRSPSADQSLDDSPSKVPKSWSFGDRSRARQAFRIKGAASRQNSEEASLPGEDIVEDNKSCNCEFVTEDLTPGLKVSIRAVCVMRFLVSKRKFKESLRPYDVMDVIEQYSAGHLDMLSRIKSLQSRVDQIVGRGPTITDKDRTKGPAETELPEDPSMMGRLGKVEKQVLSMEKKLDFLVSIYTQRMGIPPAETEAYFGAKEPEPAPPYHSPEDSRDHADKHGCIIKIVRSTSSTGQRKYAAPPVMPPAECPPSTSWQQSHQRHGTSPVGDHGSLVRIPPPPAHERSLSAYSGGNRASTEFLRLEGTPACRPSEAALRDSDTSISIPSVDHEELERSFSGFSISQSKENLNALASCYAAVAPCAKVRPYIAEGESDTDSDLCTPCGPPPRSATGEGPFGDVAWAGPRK
# KCNQ2 block baseline: recorded beside KCNQ2 block, whose call it bears; B-score; measured here: initial fluorescence intensity artifact check;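 brightness before thallium and not channel activity; 0 = typical well and far values either way flag optical interference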
# Numbers without * were called inactive; i = inactive.
KCNQ2 block,KCNQ2 block baseline,Compound
i,0.12,CCOc1ccccc1CNC(=O)c1cc2oc3ccccc3c2n1CC
i,1.4,O=C1CCC([N+](=O)[O-])C(c2ccc(Cl)cc2)N1 (configuration not stated)
i,0.74,C=CCc1ccccc1OCC(O)CN1CCN(c2ccc(C)cc2)CC1 (configuration not stated)
i,-0.17,COc1ccccc1CNC(=O)CN(c1ccc(C)cc1)S(=O)(=O)c1c(C)n[nH]c1C
i,0.94,CCNC(=S)NNc1nncc2ccccc12
i,-0.6,CCOc1ccc(NC(=S)N2CCCN(Cc3cccc(Cl)c3)C2)cc1
i,-0.82,COc1cc(C(=O)N2CCSCC2)ccc1OC1CCN(C(C)=O)CC1
i,2.2,C=CCN1C(=O)/C(=C/C=C2/N(CC)c3ccc(S(=O)(=O)N(C)C)cc3N2CC)SC1=S
i,-1.2,CCOc1ccc(-n2c(SCC(=O)Nc3ccc4c(c3)OCO4)nc3ccccc3c2=O)cc1
i,-0.46,COc1ccc(Cc2n[nH]c(=S)n2Cc2ccccc2)cc1Cl
i,1.7,CN(C)Cc1ccc(F)cc1Sc1cc(Cl)ccc1Cl
i,-0.87,CCOC(=O)c1c(NC(=O)c2c(-c3ccccc3)noc2C)sc(C)c1-c1ccccc1
i,-1.5,O=c1[nH]c(C2CC2)nc2sc3c(c12)CCCC3
i,1.3,COc1ccc(N2C(=S)N(C(=O)c3ccccc3)C(=Nc3ccccc3)C2=Nc2ccccc2)cc1
i,-0.22,COc1ccc2c(c1OC)C(=O)N(c1ccc3c(c1)CCC3)C2=O
i,-0.1,CCc1ccc(OCC(=O)NNC(=S)NC(=O)C2CCCCC2)c(Br)c1
i,0.13,Cc1ccc(CNC(=O)CSCc2ccc(F)cc2)cc1
i,-1.6,Cc1ccc(OCC(=O)NCCN2CCOCC2)cc1C
i,0.81,COc1ccc(NC(=O)N2CCCC(c3nc(-c4ccc(C(C)C)cc4)no3)C2)cc1 (configuration not stated)
i,0.18,OC(COC1CCCCC1)CN1CCN(c2ccccc2)CC1 (configuration not stated)
i,1.8,O=C(NCc1ccccc1Cl)c1ccc2nc[nH]c2c1
i,-2.6,CCOc1ccc(N2C(=O)CC(NCCc3ccncc3)C2=O)cc1 (configuration not stated)
i,-0.23,CCN(C(=O)COC(=O)c1ccccc1SCC(=O)NC1CCCCCCC1)C1CCS(=O)(=O)C1 (configuration not stated)
i,1.1,Cc1ccc(CC(NC(=O)c2ccccc2)C(=O)N2CCCC2C(=O)O)cc1 (configuration not stated)
i,-1.4,Cc1nnc(NC(=O)c2ccccc2C(=O)O)s1
-7.4*,0.42*,CC(C)(Oc1ccc(Cl)cc1)C(=O)N1CCN(c2ccccn2)CC1
i,-1.3,Cc1cc(C)c(C#N)c(SCc2nnc(-c3ccccc3)o2)n1
i,0.46,COc1ccc(NC(=O)CS(=O)CC(=O)Nc2cc(Cl)ccc2OC)cc1 (configuration not stated)
i,-0.77,S=C(Nc1ccccc1)N1CCN(c2ccc(N3CCOCC3)nn2)CC1
i,2.3,O=C(NC1CC1)c1cc2c(F)cccc2s1

# Fetched by structure from the entries so far, 7 records:
KCNQ2 block,KCNQ2 block baseline,Compound
i,-0.17,COc1ccccc1CNC(=O)CN(c1ccc(C)cc1)S(=O)(=O)c1c(C)n[nH]c1C
i,-1.3,Cc1cc(C)c(C#N)c(SCc2nnc(-c3ccccc3)o2)n1
i,-1.4,Cc1nnc(NC(=O)c2ccccc2C(=O)O)s1
i,-0.82,COc1cc(C(=O)N2CCSCC2)ccc1OC1CCN(C(C)=O)CC1
i,-0.23,CCN(C(=O)COC(=O)c1ccccc1SCC(=O)NC1CCCCCCC1)C1CCS(=O)(=O)C1 (configuration not stated)
i,-0.1,CCc1ccc(OCC(=O)NNC(=S)NC(=O)C2CCCCC2)c(Br)c1
i,-0.46,COc1ccc(Cc2n[nH]c(=S)n2Cc2ccccc2)cc1Cl

# Further structures follow.
KCNQ2 block,KCNQ2 block baseline,Compound
i,-0.88,CC(C)c1nc2c(c(=O)n(C)c(=O)n2C)n1C
i,1.2,CCN(CC(=O)NCc1ccc(Cl)cc1)C(=O)/C=C/c1cccs1
i,0.27,COc1ccc(CCNC(=O)CSCc2ccc(Cl)cc2)cc1OC
i,-0.06,COc1cc(NC(=O)COC(=O)c2cnc(C)cn2)c(C)cc1[N+](=O)[O-]
i,1.1,O=C(NCc1ccc2c(c1)OCO2)c1cccc2c1C(=O)N(C1CCCCC1)C2
i,-0.57,C=CCn1c(CCSCc2ccccc2)n[nH]c1=S
i,-0.37,COc1ccc(CC(=O)Nc2cccc(-c3csc(C)n3)c2)cc1
i,1.5,COc1ccc(C2=NC(c3ccccc3)CO2)cc1 (configuration not stated)
i,0.75,COC(=O)Cn1cc(/C=N/NC(=O)c2ccc(C#N)cc2F)c2ccccc21
i,-3,O=C(CSc1ccc(-c2ccccn2)nn1)NCc1ccc(F)cc1
i,1.8,CCC1Sc2ccc(S(=O)(=O)CCC(=O)Nc3ccccc3Cl)cc2NC1=O (configuration not stated)
i,0.09,O=C(C1CC(=O)N(C2CCCCC2)C1)N1CCN(c2cccc(C(F)(F)F)c2)CC1 (configuration not stated)
i,0.99,O=C(CSc1nnc(Cc2cccs2)n1-c1ccccc1)NCc1ccc2c(c1)OCO2
i,-0.05,Cc1nc(NCCc2ccc(F)cc2)c2nnn(Cc3ccccc3)c2n1
i,-0.85,CCOc1ccc2oc(C(=O)OCC(=O)NC3CC3)c(C)c2c1
i,-0.23,N#Cc1ccc(OCc2nnc(SCC(=O)N3CCCc4ccccc43)n2-c2ccccc2)cc1
i,-2.9,O=C(O)CCC(=O)N1N=C(c2ccc(Br)cc2)CC1c1ccc(Br)cc1 (configuration not stated)
i,-0.67,COC(=O)CSc1ccc2nnc(CCNS(=O)(=O)c3ccccc3)n2n1
i,4.4,COn1c(-c2ccccc2)nc2ccc(Cl)cc21
i,2.5,N#C/C(=C/c1ccc(-c2ccc(Br)cc2)o1)C(=O)NC1CCCCC1
i,-1.3,Cc1cccn2c(=O)c(C=O)c(NCc3ccccc3)nc12
i,-0.66,COc1ccc(NS(=O)(=O)c2cccc(C(=O)NCc3ccccn3)c2)cc1
i,-2.3,COc1cc(C(Nc2ccc(S(=O)(=O)N3CCC(C)CC3)cc2)C(=O)NCC2CCCO2)cc(OC)c1OC (configuration not stated)
i,-1.2,O=C(CSc1nc2ccccc2o1)Nc1ccc(N2CCOCC2)c(Cl)c1
i,0.14,COC(=O)CC1(c2cccc3ccccc23)C(=O)c2ccccc2C1=O
i,0.01,CCOc1ccc(S(=O)(=O)N2CCN(Cc3ccc4c(c3)OCO4)CC2)cc1Cl
i,-0.07,CNS(=O)(=O)c1cn(CC(=O)N(C)Cc2ccccc2)cc1S(=O)(=O)NC
i,-0.12,COc1ccc(OC)c(NC(=O)CSc2n[nH]c(-c3cccnc3)n2)c1
i,1.2,CCNC(=S)NNC(=O)CSc1nc2ccccc2n1C
i,-0.03,Nc1cc(=O)[nH]c(=O)n1Cc1ccco1
i,0.9,Cc1cc(C)nc(NC(=NCCc2c[nH]c3ccccc23)NC(=O)Nc2ccc(Cl)c(Cl)c2)n1
i,-0.01,N#Cc1c(C(F)(F)F)cc(-c2ccccc2)nc1SCC(=O)Nc1sc2c(c1C#N)CCC2
i,0.16,CCOC(=O)N1CCN(Cc2nc3c(c(=O)n(C)c(=O)n3C)n2Cc2ccccc2C)CC1
i,0.53,O=C(CNC(=O)c1cccs1)NC1=NCCS1
i,-0.46,O=c1[nH]c(N2CCCCCC2)nc2ncn(Cc3ccccc3)c12
i,-1.5,O=C(Nc1nc2ccccc2[nH]1)C12CC3CC(CC(C3)C1)C2
i,0.04,O=C(CN(CCc1ccccc1)C(=O)CNS(=O)(=O)c1ccccc1)NCC1CCCO1 (configuration not stated)
i,-0.1,CCN1CCN(c2cc(C)c3cc(NC(=S)N4CCOCC4)ccc3n2)CC1
i,0.07,CCOC(=O)N1CCc2[nH]c3ccc(C)cc3c2C1
i,1,CCN(CC)C(=O)c1cccc(NC(=O)c2ccc3c(=O)n4c(nc3c2)CCC4)c1
i,1.9,Cc1ccc(N2CC(C(=O)N/N=C/c3cccc([N+](=O)[O-])c3)CC2=O)cc1 (configuration not stated)
i,2.6,C/C(=N/NC(=O)CNC(=O)c1ccccc1F)c1ccc2c(c1)CCCC2
i,-0.78,O=C(NCC1CCCO1)C(=O)NCC1CCCN1S(=O)(=O)c1ccccc1 (configuration not stated)
i,0.27,COC(=O)N1C(=O)[C@](c2ccc(Cl)cc2)(C(C)C)N1C(=O)OC
i,-1.2,Cc1ccc(C(C)NC(=O)Cn2nc(C)c([N+](=O)[O-])c2C)cc1 (configuration not stated)
-8.5*,-2.3*,CCCCn1c(NCc2ccc3c(c2)OCO3)nc2ccccc21
i,1.3,Cc1cc(C)n2ncc(C(=O)NCc3ccccc3)c2n1
i,-0.24,COc1cccc(CN(C(=O)c2cccc(OC)c2)C2CCS(=O)(=O)C2)c1 (configuration not stated)
i,-1.1,c1ccc(CCN2CCN(c3ncnc4c3cnn4-c3ccccc3)CC2)cc1
i,-2.5,Cc1cc(C(=O)N/N=C\c2ccc(COc3ccc([N+](=O)[O-])cc3)o2)ccc1[N+](=O)[O-]
i,-0.21,COc1ccc(Cc2nc3ccc(C(=O)N4CCCN(C=O)CC4)cc3o2)cc1
i,-0.73,CC(=O)Nc1ccc(NC(=O)CSc2nnc(-c3ccc(NS(C)(=O)=O)cc3)n2C)cc1C
i,-1.6,COc1ccc(C2=NOC(Cn3nc(C(=O)NCc4cccs4)cc3-c3ccccc3)C2)cc1 (configuration not stated)
i,2.2,CC(NC(=O)c1cccnc1)C(c1ccccc1)N1CCN(C)CC1 (configuration not stated)
i,0.22,COc1ccc(O)c(/C=N/NC(=S)Nc2cccnc2)c1
i,0.19,c1nc(N2CCOCC2)c2[nH]cnc2n1
i,-0.67,CC1Nc2ccc(C(=O)NC3CCCCC3)cc2NC1=O (configuration not stated)
i,1.2,COc1ccc(C2/C=C\CN(C(=O)c3ccccc3)[C@H](Cc3ccccc3)C(=O)N2Cc2ccc(F)cc2)cc1 (some centres not stated)
i,2.1,COc1cccc(C(Nc2ccccn2)c2oc(CO)cc(=O)c2O)c1 (configuration not stated)
i,-0.71,O=C(COC(=O)C1CCCN1C(=O)C12CC3CC(CC(C3)C1)C2)c1ccc(Br)cc1 (configuration not stated)

# More entries
KCNQ2 block,KCNQ2 block baseline,Compound
i,-1.9,CCN(CC)CCN1C(=O)C2C(C(=O)Nc3cccc(SC)c3)C3C=CC2(O3)C1C(=O)NC1CCCC(C)C1C (configuration not stated)
i,0.26,COc1ccc(Br)cc1CNC(=O)CCC(=O)N1CCSc2ccccc21
i,-1.9,CCOc1ccc(N(CC(=O)Nc2ccc(C)c(Cl)c2)S(C)(=O)=O)cc1
i,-0.86,O=C(N/N=C/c1ccc(OCC2COCCO2)cc1)c1ccc(Br)cc1 (configuration not stated)
i,-1.4,Cc1cc(C)cc(-n2c(N)c(C(=O)Nc3c(C)n(C)n(-c4ccccc4)c3=O)c3nc4ccccc4nc32)c1
i,-0.23,COCC(C)n1c(C)cc(C(=O)COC(=O)C2=NN(c3ccccc3)C(=O)CC2)c1C (configuration not stated)
i,-0.04,COc1cc(-c2nc(S(=O)(=O)c3ccc(C)cc3)c(N3CCOCC3)o2)cc(OC)c1OC
i,-1.4,Cn1c(COc2ccccc2)nnc1SCC(=O)NC1CCCC1
i,-0.04,O=C(Nc1cc(C(F)(F)F)ccc1N1CCCCC1)c1ccco1
i,-1.7,O=C(O)CSc1ncnc2c1sc1nc(-c3ccccc3)c3c(c12)CCC3
i,0.53,Cc1ccc(NC(=O)CSc2ccc(C(N)=O)cc2[N+](=O)[O-])cc1C
i,-1.5,CC(C)C(=O)Nc1sc2c(c1-c1nc3ccccc3[nH]1)CCCC2
i,-0.99,Cc1c(C)n2c(SCC(=O)N3CCCCCC3)nnc2[nH]c1=O
i,1.8,CCOCCCNCC(=O)NCC1CCCCC1
i,-1,Cc1ccc(-c2cc(C(=O)Nc3nn[nH]n3)c3ccccc3n2)cc1
i,0.95,CCCOc1ccc(N/C=C/C(=O)c2cc(OC)c(OC)c(OC)c2)cc1
i,0.03,O=C(OCC(=O)N1CCN(c2ccccc2)CC1)c1cccc([N+](=O)[O-])c1
i,0.02,CC(=O)c1c(C)[nH]c(C(=O)NCc2ccccc2F)c1C
i,0.06,Cc1ccc2nc(C)cc(C(=O)OCC(=O)Nc3c(C)n(C)n(-c4ccccc4)c3=O)c2c1
i,-1.7,O=C(CN(Cc1ccc(F)cc1)C(=O)CCC(=O)Nc1ccccn1)NCCc1ccccc1
i,0.23,CC(C)(C)Nc1nc(Cl)nc(NCc2ccccc2)n1
i,0.29,COC(=O)[C@]1(CC(C)C)N[C@H](c2ccc(-c3ccc(Cl)c(Cl)c3)cc2)[C@@H]2C(=O)N(C)C(=O)[C@@H]21
i,-1.3,Cn1c2ccccc2n2c(=O)cc(-c3ccccc3)c(C#N)c12
i,-0.1,COc1ccc(N(CC(=O)NC2CCCC2)S(=O)(=O)c2ccc(NC(C)=O)cc2)cc1
i,3,COc1ccc(OC)c(NC(=O)CCOc2cccc(C)c2)c1
i,0.03,COc1cc(OC)cc(-c2nc3ccccc3c(=O)n2OC(=O)c2ccccc2C)c1
i,-0.52,CCCCCC(=O)NC(CC(=O)OC)c1ccc2c(c1)OCO2 (configuration not stated)
i,-0.85,O=C(NCC1COc2ccccc2O1)c1ccccc1 (configuration not stated)

# For convenience, some entries already given:
KCNQ2 block,KCNQ2 block baseline,Compound
i,0.03,COc1cc(OC)cc(-c2nc3ccccc3c(=O)n2OC(=O)c2ccccc2C)c1
i,-0.52,CCCCCC(=O)NC(CC(=O)OC)c1ccc2c(c1)OCO2 (configuration not stated)
i,-0.85,O=C(NCC1COc2ccccc2O1)c1ccccc1 (configuration not stated)

# This is a subset; the hit share may differ from the screen's.
